From PubChem BioAssay
CtBP-E1A inh: blocks the CtBP interaction with E1A; AlphaScreen GST-E1A/His-CtBP binding, 1536-well; active compounds read low; control for the full effect not named in the record; activity change, % (concentration not given with the values); actives 0.49% (n = 340,000); AID 651724; in the data active means activity change below about -65%; inconclusive means about -30% to -65%; inactive means above about -30%; note: % is set by controls: 0 for no effect and ±100 for the full control effect
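In 5 uL wells, 23 nL compound meets equimolar GST-E1A and His-CtBP (5X stock 125 nM each) for 2 h, 37 °C. Beads (5X, 50 ug/mL) then 1 h, 37 °C, dark.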
Six1-Eya2 inh: blocks human Six1 binding to Eya2. AlphaScreen GST-Six1/His-Eya2 binding, biochemical; active compounds read low; control for the full effect not named in the record. activity change, % (test concentration not listed). actives 0.56% (n = 360,000). Q15475+O00167; in the data active = activity change below about -65%; inconclusive = about -30% to -65%; inactive = above about -30%; note: % is set by controls: 0 for no effect and ±100 for the full control effect
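AlphaScreen luminescence read after one hour at 37 °C in darkness. Pin-transferred compounds met GST-Six1 and His-Eya2 protein (5X stock 250 nM/500 nM) plus glutathione donor and Ni-chelate acceptor beads (5X, 50 ug/mL).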
D2 PAM: potentiates the human D2 dopamine receptor allosterically. potentiation, % (no concentration beside the values). P14416. AID 624464. actives 0.23% (n = 360,000). DiscoveRx D2 beta-arrestin cells, luminescence, 90 min; 100% = 57 uM dopamine signal; active = potentiation of 50% or more; inconclusive = 30% to 50%; inactive = 30% or less;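 note: compound concentration not given in the record; tested on top of an EC20 dose of dopamine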
Target sequence (P14416 whole entry, looked up): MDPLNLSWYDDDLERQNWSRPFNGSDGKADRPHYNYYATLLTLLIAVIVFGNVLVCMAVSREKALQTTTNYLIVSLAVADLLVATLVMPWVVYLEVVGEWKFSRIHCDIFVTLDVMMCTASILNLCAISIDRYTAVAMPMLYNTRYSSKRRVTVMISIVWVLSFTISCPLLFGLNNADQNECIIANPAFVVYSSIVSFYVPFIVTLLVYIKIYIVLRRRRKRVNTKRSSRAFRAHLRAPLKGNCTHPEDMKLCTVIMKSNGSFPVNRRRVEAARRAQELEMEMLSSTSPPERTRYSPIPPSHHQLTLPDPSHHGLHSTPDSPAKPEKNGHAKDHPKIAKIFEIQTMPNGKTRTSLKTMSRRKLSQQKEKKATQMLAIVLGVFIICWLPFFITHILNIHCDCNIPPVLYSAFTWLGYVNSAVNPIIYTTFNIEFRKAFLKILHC
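PathHunter beta-arrestin assay in DiscoveRx D2 cells. Compounds were added with an EC20 of dopamine (50 nM final) for 90 min at 37 deg C. Luminescence was read 1 h after detection reagent, with 57 uM dopamine as the EC100 control.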
D2 ag: agonists of human D2 dopamine receptor (beta-arrestin). P14416. DiscoveRx PathHunter D2 beta-arrestin, luminescence, 90 min; 100% = 57 uM dopamine signal. activation, % (no concentration beside the values). actives 0.084% (n = 360,000). AID 624465; in the data active = activation above about 40%; inconclusive = about 15% to 40%; inactive = below about 15%; note: compound concentration not given in the record; the text of the record calls up to 30% inactive
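DiscoveRx PathHunter D2 beta-arrestin cells (2,100/well) attached overnight, then compound-stimulated 90 min at 37 C in HBSS/10 mM HEPES/0.1% Tween-20 buffer; beta-galactosidase complementation read by luminescence after 1 h at ambient temperature. Dopamine 57 uM final (EC100) as control.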
PINK1 expr mod: changes PINK1 expression. PINK1 immunofluorescence, high-content cytometry, 24 h. actives 0.2% (n = 410,000). Potency, µM (series often up to 76.6 µM), for inactives: top-dose activation (PINK1 increase), most hits filed as activators; active = well fitted activation curve with a large enough effect; inconclusive = small, poorly fitted or top-dose-only effect; inactive = flat fitted curve, though single readings scatter; cell line not stated here;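 note: potency is the fitted concentration of half-maximal effect; % of control where 0% means no effect; nearly all actives have a fitted effect of over 65% in size; a mitochondrial uncoupler was the plate control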
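Decision-based qHTS: stable cells, 24 h exposure to five compound concentrations, CCCP as control. Fixed cells stained for PINK1 plus nuclear, mitochondrial and cell markers, cytometer read.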
TRPML1 ag: human mucolipin-1 channel agonism; Q9GZU1; TRPML1-expressing cells, Ca2+ dye fluorescence, FDSS; host cell line not named in the record; reference of the full effect not given here; activation, % (no concentration beside the values); actives 0.12% (n = 410,000); AID 624414; in the data active = activation above about 50%; inconclusive = about 30% to 50%; inactive = below about 30%; note: 0% is about no effect; the text of the record puts the active cut at 80%
Target sequence (Q9GZU1 whole entry, looked up): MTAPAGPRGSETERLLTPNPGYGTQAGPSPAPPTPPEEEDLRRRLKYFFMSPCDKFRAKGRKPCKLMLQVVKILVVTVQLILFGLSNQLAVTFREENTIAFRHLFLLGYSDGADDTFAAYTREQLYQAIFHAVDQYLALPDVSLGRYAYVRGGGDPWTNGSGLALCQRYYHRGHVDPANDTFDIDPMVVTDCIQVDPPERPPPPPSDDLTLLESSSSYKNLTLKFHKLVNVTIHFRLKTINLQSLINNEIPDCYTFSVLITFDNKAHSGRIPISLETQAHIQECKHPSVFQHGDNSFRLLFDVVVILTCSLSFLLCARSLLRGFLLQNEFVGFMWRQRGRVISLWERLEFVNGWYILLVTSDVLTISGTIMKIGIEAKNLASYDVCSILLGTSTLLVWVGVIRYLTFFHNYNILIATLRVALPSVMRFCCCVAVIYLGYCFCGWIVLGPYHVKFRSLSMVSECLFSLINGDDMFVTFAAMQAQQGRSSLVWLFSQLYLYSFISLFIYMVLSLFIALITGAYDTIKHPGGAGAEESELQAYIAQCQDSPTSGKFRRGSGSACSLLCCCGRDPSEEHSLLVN
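TRPML1-DL cells, Tet-induced overnight (~16 h, 37 degrees C), loaded 45-90 min at room temperature with Ca8 no-wash calcium dye plus quencher. FDSS fluorescence: 10 s baseline, compound pin-transfer, 110 s agonist read, then EC80 54-4 (4uM final) and 110 s antagonist read.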
Starred values were filed as active, the others as inactive; ? = inconclusive; . = no result given; [ ] = another dose, or the depositor's remark.

| structure | CtBP-E1A inh | Six1-Eya2 inh | D2 PAM | D2 ag | PINK1 expr mod | TRPML1 ag |
| --- | --- | --- | --- | --- | --- | --- |
| O=C1NC(=O)N(Cc2ccco2)C(=O)/C1=C/C=C/c1ccco1 | -5 | ? | 1 | -5.0 | 1.2% | 5.9 |
| CCC(=NC(C)c1ccccc1)c1c(O)[nH]c(=O)[nH]c1=O (stereo unspecified) | 2 | -9 | -2 | 7.4 | 1.1% | 2.2 |
| CC1C(OC(=O)CCC(=O)NC(C)(C)CO)O[C@H]2OC3(C)CC[C@H]4[C@H](C)CCC1C24OO3 (stereo partly specified) | -20 | -7 | 13 | . | 1.2% | 3.0 |
| Cc1ccccc1CCNCc1cc2cccc(C)c2[nH]c1=O | . | 4 | -74 | -0.9 | -1.3% | . |
| CCCCCCn1c(O)c(C=NC2CCN(Cc3ccccc3)CC2)c(=O)[nH]c1=O | -2 | 6 | -7 | -1.7 | -2.5% | 0.7 |
| COc1ccc(NC(=O)[C@@H](NC(=O)N2C[C@H]3C[C@@H](C2)c2cccc(=O)n2C3)C(C)C)cc1 | 7 | 2 | 6 | 2.0 | 1.0% | . |
| N[C@@H](Cn1oc(=O)[nH]c1=O)C(=O)O | 7 | -2 | 13 | 0.7 | 0.6% | -0.5 |
| COCCNC(=O)c1c(NC(=O)c2ccco2)n(Cc2ccccc2)c2nc3ccccc3nc12 | 1 | 1 | -11 | -4.9 | 2.6% | 1.9 |
| CC1C2Cc3ccc(O)cc3[C@]1(C)CCN2CCc1ccccc1 (stereo partly specified) | -9 | 1 | -24 | 1.5 | 1.6% | 1.2 |
| CN1C(=O)NC(=O)C(C)(C2=CCCCC2)C1=O (stereo unspecified) | 1 | 0 | -10 | 4.5 | 2.0% | -0.5 |
| FC(F)(F)c1cccc(C2NCc3ccccc3-n3cccc32)c1 (stereo unspecified) | -4 | -20 | -10 | -6.5 | ? | -0.1 |
| Cc1cccc(C)c1OP(N)(=O)OCC(F)(F)F (stereo unspecified) | 3 | 3 | -10 | -1.8 | -0.2% | 0.7 |
| Nc1cc(C(=O)Nc2ccccc2F)ccc1N1CC2CC(C1)c1cccc(=O)n1C2 (stereo unspecified) | 1 | 2 | -8 | -1.0 | 11% | -0.5 |
| CN1CCN(C(=O)COc2ccc(S(=O)(=O)N(C)Cc3ccccc3)cc2)CC1 | 1 | 5 | 2 | -2.4 | . | 1.0 |
| O=P1(NCCCl)OCCCN1CCCl (stereo unspecified) | -14 | 7 | -8 | -6.2 | 0.7% | 0.0 |
| Cn1c(O)c(C=NCCN2CCNCC2)c(=O)[nH]c1=O | -1 | -2 | 4 | -1.6 | 0.2% | -0.3 |
| COCCCNC(=O)c1c(N)n(Cc2ccco2)c2nc3ccccc3nc12 | 6 | 7 | -1 | 3.3 | -2.0% | 1.9 |
| COC(=O)[C@@H](N)CCCN=C(N)N[N+](=O)[O-] | -2 | -8 | -5 | -6.2 | -0.2% | 0.0 |
| O=c1c2ccccc2nc(CSc2ncnc3nc[nH]c23)n1-c1ccccc1 | -23 | 0 | 10 | -1.4 | 18% | 1.0 |
| COc1ccc(CCNCc2cccn2C)cc1OC | . | -15 | -2 | 1.3 | -0.7% | -0.9 |
| O=c1c2ccccc2nc(-c2ccccc2)n1-n1cccc1 | 1 | 1 | 2 | -0.9 | 0.1% | 1.7 |
| COc1ccc(NC(=O)N2Cc3ccccc3-n3nncc3C2)cc1 | 1 | -6 | 0 | -10 | 1.4% | -0.9 |
| Cc1ccc(-n2c(=S)[nH]c3ccc(C)cc3c2=O)cc1 | 8 | -10 | 1 | -4.5 | -1.5% | -0.9 |
| O=C(O)c1cccc(NC(=O)N2C[C@H]3C[C@@H](C2)c2cccc(=O)n2C3)c1 | 13 | 3 | -6 | 3.5 | 1.4% | . |
| COc1ccc(NC(=O)c2cc([N+](=O)[O-])ccc2N2CCNCC2)cc1 | 2 | -8 | -4 | -1.1 | -2.1% | 1.0 |
| CCOc1cc2c(cc1OCC)-n1cccc1C(c1cccc([N+](=O)[O-])c1)NC2 (stereo unspecified) | . | ? | -8 | -4.0 | 2.2% | 2.0 |
| COc1ccc(S(=O)(=O)N2CC3CC(C2)c2cccc(=O)n2C3)cc1 (stereo unspecified) | 38 | 11 | 2 | -4.0 | 0.7% | -0.7 |
| c1ccc(Cc2nn3c(Cn4cnc5ccccc54)nnc3s2)cc1 | -1 | -1 | 3 | 0.0 | ? | 0.6 |
| O=c1[nH]c(O)c(/C=C2\C=NN=C2c2ccccc2)c(=O)[nH]1 | 1 | -2 | -2 | -2.4 | 8.4%[38.3 µM] | 0.0 |
| O=C(O)C1C2CCC(O2)C1C(=O)Nc1ccc(Cl)cc1 (stereo unspecified) | 9 | -5 | 1 | 2.1 | 13% | -0.5 |

Next section
Every second line gives: CtBP-E1A inh, Six1-Eya2 inh, D2 PAM, D2 ag, PINK1 expr mod, TRPML1 ag
> Cc1ccc(N2C(=O)CC(=O)NC2=O)cc1
    2, 5, 5, 0.1, 1.4%[38.3 µM], -0.2
> O=[As](O)(O)c1ccc(N=Nc2ccc(O)cc2)cc1
    ., -4, -25, -3.4, 4.0%, -0.4
> CC1=CC(C)CC(C)OC(=O)CC(c2ccc(O)cc2)NC(=O)C(Cc2c(Br)[nH]c3ccccc23)N(C)C(=O)C(C)NC(=O)C(C)C1 (stereo unspecified)
    -6, -2, -8, 1.3, -0.4%, 3.6
> O=C(CSC1c2ccccc2-c2ccccc21)N/N=C/c1ccccc1C(=O)O
    0, 0, -4, -3.0, 0.8%, -0.8
> CCN(CC)C(=O)c1ccc(NC(=O)CN2CCc3cc(OC)c(OC)cc3C2)cc1
    -24, 8, -5, -1.3, -1.5%, 0.4
> CCOc1cc(C=C2C(=O)NC(=O)NC2=O)ccc1OS(=O)(=O)c1ccccc1
    1, 11, -11, 0.9, 4.0%, 0.3
> O=P(Oc1ccccc1)(Oc1ccccc1)c1ccccc1
    10, 14, -8, -3.9, 2.0%, 0.8
> O=C(CCC(=O)N1CCOc2ccc(Cl)cc21)N1CCC2(CC1)OCCO2
    11, 4, -7, -4.4, -0.7%, -0.6
> O=C1/C(=C\c2ccc([N+](=O)[O-])cc2)N2CCC1CC2
    5, -4, -4, 3.7, 2.8%, 0.6
> Brc1ccc(-[n+]2c(-c3ccccc3)cc(-c3ccccc3)cc2-c2ccccc2)cc1
    -22, -16, -5, -1.7, 25µM*, 0.7
> O=C1CN=C(c2ccccc2)c2cc(Br)ccc2N1
    ., 4, 2, -0.7, 8.0%, -0.4
> Cn1cc(C(=O)NCc2ccccc2)c2ccccc21
    1, 4, -13, -3.4, 0.7%, -0.5
> CCOC(=O)c1ccc(NC(=O)N2CC3CC(C2)c2cccc(=O)n2C3)cc1 (stereo unspecified)
    6, 6, -9, -0.9, 1.8%, -0.6
> O=C(C[N+]12CCN(CC1)CC2)NCCc1ccc(Cl)cc1Cl
    6, 7, -5, -0.9, 0.0%, 0.0
> CC(=O)c1cccc(NC2=NCC(C)S2)c1 (stereo unspecified)
    -25, 3, -11, -1.8, -1.6%, -0.7

Some of the entries so far, as labelled records.
> O=P(Oc1ccccc1)(Oc1ccccc1)c1ccccc1
  CtBP-E1A inh: 10 | Six1-Eya2 inh: 14 | D2 PAM: -8 | D2 ag: -3.9 | PINK1 expr mod: 2.0% | TRPML1 ag: 0.8

> O=C(CCC(=O)N1CCOc2ccc(Cl)cc21)N1CCC2(CC1)OCCO2
  CtBP-E1A inh: 11 | Six1-Eya2 inh: 4 | D2 PAM: -7 | D2 ag: -4.4 | PINK1 expr mod: -0.7% | TRPML1 ag: -0.6

> O=C1/C(=C\c2ccc([N+](=O)[O-])cc2)N2CCC1CC2
  CtBP-E1A inh: 5 | Six1-Eya2 inh: -4 | D2 PAM: -4 | D2 ag: 3.7 | PINK1 expr mod: 2.8% | TRPML1 ag: 0.6

> Brc1ccc(-[n+]2c(-c3ccccc3)cc(-c3ccccc3)cc2-c2ccccc2)cc1
  CtBP-E1A inh: -22 | Six1-Eya2 inh: -16 | D2 PAM: -5 | D2 ag: -1.7 | PINK1 expr mod: 25µM* | TRPML1 ag: 0.7

Continuation:
Every second line gives: CtBP-E1A inh, Six1-Eya2 inh, D2 PAM, D2 ag, PINK1 expr mod, TRPML1 ag
> CC12CC1(C)C(=O)N(c1cc(Cl)cc(Cl)c1)C2=O (stereo unspecified)
    0, 6, -4, -1.5, 2.1%, 7.5
> O=C1NC(=O)N(CCc2ccc(F)cc2)C(=O)/C1=C/c1cccs1
    6, 6, -8, -3.5, -0.9%, -0.2
> COC(=O)Cn1cc(C=C2C(=O)NC(=O)NC2=O)c2ccccc21
    7, -4, -1, 5.6, 2.2%, 0.9
> Cc1ccc(CN2Cc3ccc(Br)cc3-n3nncc3C2)cc1
    -7, -10, -4, -1.7, 1.5%, -0.6
> CN1CC(C(=O)c2ccc(Cl)cc2)C(c2ccc(N(C)C)cc2)C1 (stereo unspecified)
    ., ?, -18, ., 2.1%, 0.7
> CC(=O)Nc1ccc(OC(=O)N2CCCCC2)cc1
    0, 4, -4, -1.5, 0.8%, -0.4
> OCC[N+]12CCC(CC1)C(C(O)(c1ccccc1)c1ccccc1)C2 (stereo unspecified)
    5, -15, -4, -2.8, -0.3%, -0.2
> O=C(CCCCCn1c(=S)[nH]c2ccccc2c1=O)N1CCC2(CC1)OCCO2
    3, 0, -10, -2.4, 1.1%, 0.8
> COCCN1C(=O)NC(=O)/C(=C\c2ccc(F)cc2)C1=O
    7, 5, -2, -4.5, 2.8%, -0.5
> CC(=NCCc1ccccc1)c1c(O)n(C)c(=O)n(C)c1=O
    1, -16, -4, 2.9, 1.2%, -1.1
> NC(N)=N/N=C/c1ccc(N2CCOCC2)cc1
    ., -8, -7, -1.0, 6.2%, 0.4
> COc1cccc(C(=O)C2CCCN(Cc3cccc(C)n3)C2)c1 (stereo unspecified)
    ., -1, -14, -2.3, 4.1%, -0.2
> O=C(Nc1ccc(OC(=O)N2CCCCC2)cc1)N1CCOCC1
    7, 8, -2, -2.7, 0.3%, 0.2
> CCCCn1c(NS(=O)(=O)c2ccc(C)cc2)c(C(=O)OCC)c2nc3ccccc3nc21
    0, -11, -4, -5.4, -0.3%, 0.7
> CCCCOCCCN1C(C)=CC(=C2C(=O)NC(=S)NC2=O)C=C1C
    0, 2, -1, -4.0, 3.4%, -0.2
> CC(C)CCOP(N)(=O)Oc1ccccc1Cl (stereo unspecified)
    0, 18, -11, 0.0, 2.7%, 0.7
> CC(C)CN1CCN(Cc2c(F)cccc2Cl)CC1CCO (stereo unspecified)
    -2, -3, -6, -1.4, -1.2%, -0.3
> COc1cccc(C2=NOC(C(=O)N3CCC4(CC3)OCCO4)C2)c1 (stereo unspecified)
    17, 2, 0, -0.9, -2.0%[38.3 µM], 0.8
> Cc1cc(NC(=O)COC(=O)c2c(C)nn(Cc3ccccc3)c2Cl)no1
    -1, -6, -22, -3.4, 2.4%, 0.3

The list is partial; the hit share may differ from the screen's.
